# TRPML1 agonist = activates the human TRPML1 channel | Q9GZU1 | TRPML1-expressing cells, Ca2+ dye fluorescence, FDSS; host cell line not named in the record; reference of the full effect not given here | activation, % (concentration not given with the values) | 410,000 tested, 0.12% active; in the data active = activation above about 50%; inconclusive = about 30% to 50%; inactive = below about 30%; also: 0% is about no effect; the text of the record puts the active cut at 80%
# Target sequence (Q9GZU1 whole entry, looked up): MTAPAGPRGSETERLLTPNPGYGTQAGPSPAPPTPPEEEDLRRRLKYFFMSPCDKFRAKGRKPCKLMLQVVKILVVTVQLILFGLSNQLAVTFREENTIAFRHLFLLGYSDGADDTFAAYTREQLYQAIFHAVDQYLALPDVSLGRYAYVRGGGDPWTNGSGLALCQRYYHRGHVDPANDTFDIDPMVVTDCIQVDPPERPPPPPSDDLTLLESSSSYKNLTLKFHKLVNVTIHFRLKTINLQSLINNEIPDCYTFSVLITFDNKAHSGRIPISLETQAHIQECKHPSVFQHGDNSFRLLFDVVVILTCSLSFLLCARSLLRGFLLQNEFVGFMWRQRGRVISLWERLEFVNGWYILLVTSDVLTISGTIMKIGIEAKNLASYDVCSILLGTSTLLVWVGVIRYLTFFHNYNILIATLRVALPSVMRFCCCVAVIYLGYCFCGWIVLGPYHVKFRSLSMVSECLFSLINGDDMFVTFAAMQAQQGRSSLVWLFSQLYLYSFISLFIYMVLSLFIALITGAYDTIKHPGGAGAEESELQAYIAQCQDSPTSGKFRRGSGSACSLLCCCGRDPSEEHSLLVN
#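 Tetracycline-induced TRPML1-DL cells are seeded and incubated overnight before loading with a no-wash Ca2+ dye and quencher. Agonist activity is taken from the 110 s fluorescence read following compound pin-transfer on an FDSS, before EC80 54-4 challenge.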
# TRPML1 inh = human mucolipin-1 channel inhibition; Q9GZU1; activity change, negative = inhibition, % (test concentration not listed); 390,000 tested, 0.02% active; TRPML1-inducible cells, Ca2+ dye fluorescence, FDSS; stronger effect = lower value; inhibition of EC80 agonist-evoked calcium signal; in the data active means activity change below about -50%; inconclusive means about -30% to -50%; inactive means above about -30%;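 also: stimulus is agonist 54-4 at its EC80 concentration; % is scaled to controls: 0 for no effect and ±100 for the full control effect; compound concentration not given in the record; the text of the record puts the active cut at -80%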
#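 Tet-induced TRPML1-DL cells loaded with Ca8 no-wash calcium dye were read kinetically on FDSS. Compound addition was followed by EC80 agonist 54-4 (4 uM final); inhibition was read over 110 s.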
# PINK1 modulator = PINK1 expression modulation. PINK1 immunofluorescence, high-content cytometry, 24 h. 410,000 tested, 0.2% active. Potency, µM (highest dose often 76.6 µM), without a hit: top-dose activation (PINK1 increase), most hits filed as activators; active = well fitted activation curve with a large enough effect; inconclusive = small, poorly fitted or top-dose-only effect; inactive = flat fitted curve, though single readings scatter; cell line not stated here;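 also: potency is read from the fitted curve at half-maximal effect; % of control where 0% means no effect; nearly all actives have a fitted effect of over 65% in size; a mitochondrial uncoupler was the plate control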
#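 Readout is PINK1 immunofluorescence, quantified alongside mitochondrial, cell and nuclear markers by laser-scanning microplate cytometry. Cells from a stable line were exposed to compound titrations (5 concentrations) for 24 hours, with CCCP controls.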
# An asterisk follows results filed as active; . = not tested or not shown; & = joins results of further samples. Some of the compounds tested; count on the stated rates, not on these rows.
entry	mol	TRPML1 agonist	TRPML1 inh	PINK1 modulator
1	COc1cccc2c1C(=O)c1c(O)c3c(c(O)c1C2=O)C[C@@](O)(C(=O)CO)C[C@@H]3O[C@H]1C[C@H](N)[C@H](OC2CCCCO2)[C@H](C)O1 (stereo not given in full)	9.6	.	-1.0%
2	COc1ccc(CN(Cc2ccccc2)C(=O)COC(C)=O)cc1COc1ccc(NC(C)=O)cc1	-0.4	.	1.2%
3	COc1ccc(-c2nn3c(-c4cc(-c5ccccc5)n[nH]4)nnc3s2)cc1	-0.3	.	0.2%
4	O=C(Cc1ccc(OCc2ccccc2)cc1)NO	-0.7	.	0.5%
5	Cc1ccc(S(=O)(=O)N2CCCN(c3nc(-c4cccs4)nc4ccccc34)CC2)cc1	1.5	.	-0.5%
6	Cc1ccccc1C(=O)Nc1cccc(-c2nnc(SCC(=O)NCc3ccco3)n2C)c1	-0.4	.	1.0%
7	C=C1C=C(C(F)F)n2ncc(C(=O)NC(C)CC)c2N1 (stereo not given)	-1.0	.	2.2%
8	O=C(Nc1ccc(F)c(F)c1)c1cnn2c1NC(=C1CC1)C=C2C(F)F	-0.4	.	0.9%
9	Cc1ccc(S(=O)(=O)N2CCN(c3nc(-c4cncs4)nc4ccccc34)CC2)cc1	-0.5	.	0.2%
10	CCN(CC)c1ccc(/C=C/c2sc3ccccc3[n+]2CCCCI)cc1	4.9	.	32µM*
11	O=C(NC1CCCCCC1)C1CCC(CNS(=O)(=O)c2cccc3cccnc23)CC1 (stereo not given)	-0.2	.	-0.2%
12	Cc1ccc(-c2nc(=N)sn2Cc2ccccc2)cc1	0.9	.	-0.4%
13	O=[N+]([O-])c1ccc(/C=C/c2cc(Cl)nc3ccccc23)cc1	-0.3	.	1.4%
14	COC(=O)C1=C(C(=O)OC)[C@@H]2N(Cc3ccccc3)c3ccccc3[C@@]23C[C@@H](C(=O)OC)N(S(=O)(=O)c2ccc(C(F)(F)F)cc2)C3=N1	-0.4	.	0.2%
15	CO[C@H]1C[C@@H]2CC[C@@H](C)[C@@](O)(O2)C(=O)C(=O)N2CCCC[C@H]2C(=O)O[C@H]([C@H](C)C[C@@H]2CC[C@@H](O)[C@H](OC)C2)CC(=O)[C@H](C)/C=C(/C)[C@@H](O)[C@@H](OC)C(=O)[C@H](C)C[C@H](C)C=C/C=C\C=C/1C	-0.5	.	2.0%
16	CC(=O)Nc1cc(O)c2nonc2c1O	-0.4	.	-0.5%
17	CN(C)c1ccc(/C=C2\C=Cc3ccccc32)cc1	-0.5	.	3.4%
18	CCNc1nc(N2CCCN(C)CC2)nc2cc(OC)c(OC)cc12	-0.3	.	2.2%
19	CN(C)c1cc(N2CCOCC2)nc(C#N)n1	-0.4	.	1.6%
20	COc1ccc(CN(Cc2ccccc2)C(=O)Nc2ccccc2)cc1COc1ccc(NC(C)=O)cc1	0.1	.	1.6%
21	COc1ccc(/C=C\c2nccc3c2[nH]c2ccccc23)cc1	-0.3	.	1.0%
22	N#Cc1nc(-c2ccc(OCc3ccc(Cl)cc3)cc2)oc1N1CCCCCC1	-0.1	.	2.1%
23	COc1cc(C2Nc3ccccc3C(=O)N2Cc2ccco2)cc(OC)c1OC (stereo not given)	-0.7	.	-0.5%
24	C(=C\c1ccc2ccccc2n1)/c1cccnc1	-0.6	.	1.2%
25	COC(=O)N1CCN(/[N+]([O-])=N/Oc2ccc([N+](=O)[O-])cc2[N+](=O)[O-])CC1	0.1	-1	.
26	COc1ccc(C2C=C3CN(C(=O)OC(C)(C)C)S(=O)(=O)C3CC2OC(=O)c2cccc(C)c2)cc1 (stereo not given)	0.8	-6	.
27	Cc1cccc(CN2CC34C=CC(CC3S2(=O)=O)O4)c1 (stereo not given)	0.9	8	.
28	CNC(=O)[C@]1(C(F)(F)F)C[C@H](CCc2ccccc2)CCCO1	0.0	7	.
29	CCCN1CCC(=O)N(CCSc2ccc(Br)cc2)CC1	1.5	-9	.
30	CC(C)COC(=O)N1C(COCc2ccccc2)CCC=CS1(=O)=O (stereo not given)	4.0	-3	.
31	COc1ccc(C2/C=C\CN(Cc3ccco3)C(C)C(=O)N2Cc2ccc(F)cc2)cc1 (stereo not given)	2.5	20	.
32	COC(=O)C1=C[C@@H](C(=O)OC)[C@@H]2C3=C(C(=O)[C@@]2(CC(C)C)NC(=O)c2ccccc2)[C@H](C)n2c(=O)n(-c4ccccc4)c(=O)n2[C@@H]3C1	0.6	0	.
33	COC(=O)C(CC(C)C)NS(=O)(=O)c1ccccc1Br (stereo not given)	-0.1	4	.
34	C[C@@]12C=Cc3occc3[C@H]1CC[C@]13CC(=O)[C@@H](CC[C@H]12)C3	1.1	2	.
35	CC(C)(C)n1ncc2c(=O)n(Cc3ccc(F)c(F)c3F)cnc21	2.2	-16	.
36	O=C(NCCN1CCOCC1)C1(C(F)(F)F)C/C(=C/CCO)CCCO1 (stereo not given)	0.6	16	.
37	O=C(NCc1ccccc1)C1(C(F)(F)F)C/C(=C\Cc2ccccc2)CCCO1 (stereo not given)	1.5	20	.
38	COc1ccc(C(CCN2CCCC(C)C2)c2c(O)cc(OC)cc2OC)cc1 (stereo not given)	0.8	-3	.
39	COc1ccc(C2CC(c3ccccc3)Oc3cc(OC)ccc32)cc1 (stereo not given)	1.2&0.4	-2&-13	.
40	COc1ccc(C2/C=C\CN(C(=O)C3CC3)C(Cc3ccccc3)C(=O)N2Cc2ccc(F)cc2)cc1 (stereo not given)	1.6	39	.
41	COc1cc(OC)c2c(-c3ccccc3)cc(=O)oc2c1C(CC(=O)N1CCCC1)c1ccc(N(C)C)cc1 (stereo not given)	2.4	21	.
42	CCOC(=O)C1=C[C@@H](C(=O)OCC)[C@@H]2C3=C(C(=O)C2(C)C)[C@H](c2ccccc2)[C@@H]2C(=O)N(c4ccccc4)C(=O)[C@@H]2[C@@H]3C1	0.6	-9	.
43	O=C1C2C(c3ccccc3)CC=CC2C(c2ccc(C(F)(F)F)cc2)N1Cc1ccccc1 (stereo not given)	0.9	47	.
44	CC(=O)Nc1ccc(SCC(c2ccccc2)N2CCN(CCc3ccccc3)CCC2=O)cc1 (stereo not given)	0.4	-3	.
45	CCCN1CCC(=O)N(C(CSc2ccc(Br)cc2)c2ccccc2)CC1 (stereo not given)	1.4	-2	.
46	CC1CC=CC2C1C(=O)N(Cc1ccccc1)C2c1ccc(/C=C/c2ccccc2)cc1F (stereo not given)	1.2	86	.
47	COc1ccc(C2/C=C\CN(C(=O)C3CC3)C(C)C(=O)N2Cc2ccc(F)cc2)cc1 (stereo not given)	0.6	0	.
48	CC(C)(C)n1ncc2c(=O)n(Cc3cc(F)ccc3Cl)cnc21	2.1	-2	.
49	COc1ccc(-c2ccc(N(C)C)cc2)cc1C1C2C=CCC(C)C2C(=O)N1Cc1ccccc1 (stereo not given)	0.5	9	.
50	COc1ccc(C2CC(c3ccccc3)Oc3ccc(C(C)(C)C)cc32)cc1 (stereo not given)	0.2&0.2	-11&-7	.
51	CCC1CC=CC2C1C(=O)N(Cc1ccccc1)C2c1cccc([N+](=O)[O-])c1 (stereo not given)	1.9	24	.
52	CC(C)(C)n1ncc2c(=O)n(Cc3c(F)cc(Cl)cc3F)cnc21	1.6	-14	.
53	CC(=O)c1ccc(-c2c(C3C4C=CCCC4(C)C(=O)N3Cc3ccccc3)ccc3ccccc23)cc1 (stereo not given)	0.9	-11	.
54	COc1ccc(SCC(c2ccccc2)N2CCN(CC(C)C)CCC2=O)cc1 (stereo not given)	2.5	12	.
55	CC(C)(C)n1ncc2c(=O)n(Cc3cccc(OC(F)F)c3)cnc21	2.4	31	.
56	Cc1ccc(F)c(C2C3C=CCC(c4ccccc4)C3C(=O)N2Cc2ccccc2)c1 (stereo not given)	0.6	49	.
57	CC(C)CC(CSc1ccc(Br)cc1)N1CCN(CCc2ccccc2)CCC1=O (stereo not given)	1.8	25	.
58	COCO[C@H]([C@@H](C)C=C(Br)Br)[C@@H](C)COCc1ccc(OC)cc1	2.4	-22	.
59	COc1ccc(F)c(Cn2cnc3c(cnn3C(C)(C)C)c2=O)c1Cl	1.7	-28	.
60	CN(C)c1ccc(-c2cc(C3C4C=CCCC4(C)C(=O)N3Cc3ccccc3)ccc2F)cc1 (stereo not given)	0.9	2	.

# Rewritten as labelled records: part of the list above.
50	COc1ccc(C2CC(c3ccccc3)Oc3ccc(C(C)(C)C)cc32)cc1 (stereo not given)
  TRPML1 agonist: 0.2&0.2; TRPML1 inh: -11&-7; PINK1 modulator: .

30	CC(C)COC(=O)N1C(COCc2ccccc2)CCC=CS1(=O)=O (stereo not given)
  TRPML1 agonist: 4.0; TRPML1 inh: -3; PINK1 modulator: .

1	COc1cccc2c1C(=O)c1c(O)c3c(c(O)c1C2=O)C[C@@](O)(C(=O)CO)C[C@@H]3O[C@H]1C[C@H](N)[C@H](OC2CCCCO2)[C@H](C)O1 (stereo not given in full)
  TRPML1 agonist: 9.6; TRPML1 inh: .; PINK1 modulator: -1.0%

7	C=C1C=C(C(F)F)n2ncc(C(=O)NC(C)CC)c2N1 (stereo not given)
  TRPML1 agonist: -1.0; TRPML1 inh: .; PINK1 modulator: 2.2%

# (continued)
# Order of results – TRPML1 agonist, TRPML1 inh, PINK1 modulator
61	CN(C)/[N+]([O-])=N/Oc1cc(O/[N+]([O-])=N/N2CCCC2CO)c([N+](=O)[O-])cc1[N+](=O)[O-] (stereo not given)
  0.9, 9, .
62	NC1(C(=O)O)CCCC1
  0.1, -4, .
63	CCCCC(=O)N1C/C=C\C(c2ccc(OC)cc2)N(Cc2ccc(F)cc2)C(=O)C1C (stereo not given)
  0.7, 21, .
64	CC(=O)n1nnc2ccccc21
  0.3, -5, .
65	COc1ccc(C2CC(c3ccccc3)Oc3cc(OC)c(OC)c(OC)c32)cc1 (stereo not given)
  1.9&1.1, -22&2, .
66	CC(OCc1ccccc1)C(NC(=O)OC(C)(C)C)C(=O)NC1COC2CC(n3ccc(=O)[nH]c3=O)OC12 (stereo not given)
  1.6, -22, .
67	C/C=C1\COC(C(=O)NCCN2CCOCC2)(C(F)(F)F)C=C1C=C(C)C (stereo not given)
  -0.1, -14, .
68	C=C1CCN(C(CC(C)C)C(=O)Nc2ccc(OC)cc2)S(=O)(=O)c2ccccc21 (stereo not given)
  0.4, 18, .
69	CC1CC=CC2C1C(=O)N(Cc1ccccc1)C2c1ccc2ccccc2c1Br (stereo not given)
  0.7, 66, .
70	C=CCOC(/C=C/c1ccccc1)CC (stereo not given)
  1.1, 51, .
71	COC(=O)CN1CCC(=O)c2ccccc2S1(=O)=O
  0.4, -18, .
72	O=C1C[C@@H](c2ccccc2Cl)N1S(=O)(=O)c1ccccc1[N+](=O)[O-]
  0.6, 14, .
73	COc1ccc(Br)cc1C1C2C=CCCC2(C)C(=O)N1Cc1ccccc1 (stereo not given)
  3.0, 59, .
74	Cc1cc(CNC(=O)[C@]2(C(F)(F)F)C[C@H](CCC3CCCCC3)CCCO2)nn1C
  1.8, -15, .
75	CCCCCCC(=O)N1C/C=C\C(c2ccc(OC)cc2)N(Cc2ccc(F)cc2)C(=O)C1Cc1ccccc1 (stereo not given)
  0.3, -4, .
76	NC(Cc1ccccc1)C(O)c1ccco1 (stereo not given)
  1.3, -25, .
77	Cc1ccc(SCC(Cc2ccccc2)N2CCN(C)CCC2=O)cc1 (stereo not given)
  1.3, 2, .
78	COc1ccc(C2CC(=O)Oc3c(C(CCN4CCOCC4)c4ccc5c(c4)OCO5)c(OC)cc(OC)c32)cc1 (stereo not given)
  0.8, 6, .
79	C=C1CCN(C(Cc2ccccc2)C(=O)N2CCOCC2)S(=O)(=O)c2ccccc21 (stereo not given)
  2.8, -1, .
80	C=C1CCN(C(CC(C)C)C(=O)Nc2nc3ccc(Cl)cc3s2)S(=O)(=O)c2ccccc21 (stereo not given)
  0.7, 18, .
81	CN1C(=O)CC2(C=CC(=O)C=C2OC(=O)c2ccccc2)c2ccccc21 (stereo not given)
  0.4, -12, .
82	COc1ccc(Br)cc1C1C2C=CCC(C)C2C(=O)N1Cc1ccccc1 (stereo not given)
  1.3, 20, .
83	Cc1ccc(-c2cc(C3C4C=CCC(C)C4C(=O)N3Cc3ccccc3)ccc2F)cc1 (stereo not given)
  0.8, 57, .
84	CC(=O)Nc1ccc(SCC(CC(C)C)N2CCN(C)CCC2=O)cc1 (stereo not given)
  0.2, 9, .
85	CCCC[C@H]1CCCO[C@@](C(=O)NCc2ccccc2)(C(F)(F)F)C1
  0.7, -9, .
86	Cc1cccc(CN2CC34CCC(CC3S2(=O)=O)O4)c1 (stereo not given)
  0.7, 4, .

# Some of these compounds in order of their number in PINK1 modulator, ascending.
cpd	Structure	TRPML1 inh	PINK1 modulator
9	Cc1ccc(S(=O)(=O)N2CCN(c3nc(-c4cncs4)nc4ccccc34)CC2)cc1	.	0.2%
2	COc1ccc(CN(Cc2ccccc2)C(=O)COC(C)=O)cc1COc1ccc(NC(C)=O)cc1	.	1.2%
13	O=[N+]([O-])c1ccc(/C=C/c2cc(Cl)nc3ccccc23)cc1	.	1.4%
